From PubChem
VACV Venus inh = qHTS for Stage-Specific Inhibitors of Vaccinia Orthopoxvirus: Venus Reporter Primary qHTS | Vaccinia virus Venus reporter expression, fluorescence | Potency, µM (series often up to 36.5 µM), inactives show at the highest dose activity change, negative = inhibition, most hits filed as inhibitors | actives 0.46% (n = 330,000); active means well fitted inhibition curve with a large enough effect; inconclusive means small, poorly fitted or top-dose-only effect; inactive means no such curve, though single readings can be large or run the other way; tested in A549 cells; note: nearly all actives have a fitted effect of over 30% in size; inactives centre near -10
Vaccinia mCherry = qHTS for Stage-Specific Inhibitors of Vaccinia Orthopoxvirus: mCherry Reporter Primary qHTS; actives 0.63% (n = 310,000); AID 720579, 2013; Vaccinia virus mCherry reporter infection, fluorescence; about a quarter of the inactives have no number; Potency, µM (highest dose often 36.5 µM), inactives show at the highest dose activity change, negative = inhibition, usual class: inhibitors; active = well fitted inhibition curve with a large enough effect; inconclusive = small, poorly fitted or top-dose-only effect; inactive = no such curve, though single readings can be large or run the other way; tested in A549 cells; note: nearly all actives have a fitted effect of over 35% in size; inactives centre near -10
* hit, by the source's call; i = inactive; ? = inconclusive; nt = not tested or not shown; & = joins results of further samples; [ ] = another dose, or the depositor's remark. % is set by controls: 0 for no effect and ±100 for the full control effect; potency is the fitted concentration of half-maximal effect. Not a hit list; any-hit rate near 0.87%.

SMILES	VACV Venus inh	Vaccinia mCherry
O=C(NCCO)C(=O)NCC1OCCCN1S(=O)(=O)c1cccs1 (stereo not drawn)	-21%	-11%
CCOC(=O)c1c(NC(=O)COC(=O)c2ccc([N+](=O)[O-])cc2)sc(C(=O)N(C)C)c1C	-7%	-9%
COc1cc(-c2nc(-c3cccnc3)no2)cc(OC)c1OC	-8%	-18%
O=C(CCc1ccccc1)Nc1ccc(F)c([N+](=O)[O-])c1	-6%	i
Cc1onc(-c2ccccc2Cl)c1C(=O)N1CCC(C)CC1	-7%	i
Cc1ccc2c(CNC3CCCCC3)c(C(=O)O)n(Cc3ccc(F)cc3)c2c1	2%	-6%
Cc1ccc(NC(=O)CSC2=NCCN2)cc1	-20%	-11%
COc1ccc(OC)c(/C=C/C(=O)N2CCN(S(=O)(=O)c3ccc(C)cc3C)CC2)c1	?	?
C[C@H]1CN([C@@H](C)CO)C(=O)c2cc(C3=CCCC3)cnc2O[C@@H]1CN(C)C(=O)c1ccncc1	-18%	-12%
C=CCn1c(O)c(N=NC(=O)CNC(=O)Cc2ccccc2)c2ccccc21	-21%	-13%

The list goes on, overlapping the part above by six compounds.
SMILES	VACV Venus inh	Vaccinia mCherry
Cc1onc(-c2ccccc2Cl)c1C(=O)N1CCC(C)CC1	-7%	i
Cc1ccc2c(CNC3CCCCC3)c(C(=O)O)n(Cc3ccc(F)cc3)c2c1	2%	-6%
Cc1ccc(NC(=O)CSC2=NCCN2)cc1	-20%	-11%
COc1ccc(OC)c(/C=C/C(=O)N2CCN(S(=O)(=O)c3ccc(C)cc3C)CC2)c1	?	?
C[C@H]1CN([C@@H](C)CO)C(=O)c2cc(C3=CCCC3)cnc2O[C@@H]1CN(C)C(=O)c1ccncc1	-18%	-12%
C=CCn1c(O)c(N=NC(=O)CNC(=O)Cc2ccccc2)c2ccccc21	-21%	-13%
COc1ccc(Oc2coc3cc(OC(=O)c4cccs4)ccc3c2=O)cc1	-5%	nt
c1ccc(-c2ccccc2OCCCCn2ccnc2)cc1	-12%	i
O=C(COC(=O)Cn1nnc(-c2ccccc2)n1)Nc1ccccc1Br	0%	i
CC(C)Oc1cccc(C(=O)Nc2nnc([C@@H]3C[C@H](O)[C@@H](CO)O3)s2)c1	-8%	36%[activator]
Cn1nc(C(F)(F)F)c(-c2ccccc2)c1NC(=O)CSCC(=O)O	-9%	i
O=C(COc1cccnc1[N+](=O)[O-])Nc1cccc(S(=O)(=O)N2CCCCC2)c1	-29%	?
Cc1ccccc1NC(=O)CSc1nc2[nH]c(=O)cc(O)c2s1	-7%	-15%
O=C(O)C1=C[C@H](c2ccccc2)C[C@H](OCCCCO)O1	1%	i
O=C(COC(=O)c1ccccc1Cl)NC1CCCCCCC1	-12%	-16%
CCCn1c(SCC(=O)Nc2c(CC)cccc2CC)nnc1C(C)C	-11%	-4%
CCCCc1ccc(Nc2nc(CCC)cc(=O)[nH]2)cc1	-28%	?
CCOC(=O)C1=C(CN(C)Cc2ccccc2)NC(=O)NC1c1ccc(OC(C)C)cc1 (stereo not drawn)	3%	3%
Cc1ccc(S(=O)(=O)N2CCCc3cc(NC(=O)c4cccc(Cl)c4)ccc32)cc1	-14%	-4%
Nc1nc(-c2cc3c(cc2Cl)OCCO3)cs1	-10%	-22%
Cc1cccc(Nc2nnc(SCC3CCCCO3)s2)c1C (stereo not drawn)	-12%	i
Cc1cc(Nc2cccc(C(=O)O)c2)n2ncnc2n1	-5%	-19%
COc1ccc(N2C(=O)CN(Cc3ccc(OC)c(OC)c3)C2=S)cc1	-5%	i
COC(=O)c1c(C)[nH]c(C)c1-c1ccccc1Cl	-8%	nt
CCOc1ccc(N(C(C)C(=O)Nc2ccc(OC)cc2)S(C)(=O)=O)cc1 (stereo not drawn)	-15%	-14%
COc1ccc(OCC(=O)N2CCC(c3nc4ccccc4s3)CC2)cc1	-14%	-14%

Next section, starting with the last 4 of the part before.
SMILES	VACV Venus inh	Vaccinia mCherry
COc1ccc(N2C(=O)CN(Cc3ccc(OC)c(OC)c3)C2=S)cc1	-5%	i
COC(=O)c1c(C)[nH]c(C)c1-c1ccccc1Cl	-8%	nt
CCOc1ccc(N(C(C)C(=O)Nc2ccc(OC)cc2)S(C)(=O)=O)cc1 (stereo not drawn)	-15%	-14%
COc1ccc(OCC(=O)N2CCC(c3nc4ccccc4s3)CC2)cc1	-14%	-14%
COc1ccc(-c2cc(C(F)(F)F)nc(NCc3cccs3)n2)cc1	-11%	i
Cc1cc(C)n2nc(SCC(=O)Nc3ccccc3C)nc2n1	-2%&-1%	-6%
Cc1nc2c(cnn2-c2ccccc2)c(=O)[nH]1	-4%	i
CN(C)C=C1C(=O)N(C2CCCCC2)C(=O)N(C2CCCCC2)C1=O	?	nt
Cc1[nH]nc2c1C(c1c[nH]c3ccccc13)C(C#N)=C(N)O2 (stereo not drawn)	-3%[7.34 µM]	-1%[7.34 µM]
NS(=O)(=O)c1ccc(CCNc2ccn3nc(-c4ccc(OCCN5CCOCC5)cc4)cc3n2)cc1	-3%	-13%
CSc1ccc(C2=CC(=O)C[C@H](c3ccc(F)cc3)C2)cc1	-23%	i
COCCNCC1C(Oc2ccc(Cl)cc2)C(=O)N1c1ccccc1C (stereo not drawn)	-20%	i
COc1ccc(-c2nc(CSCC(=O)N3CCN(c4cccc(C)c4)C(C)C3)c(C)o2)cc1OC (stereo not drawn)	-25%	-13%
CCCCn1c(N)c(N(CCOC)C(=O)COC(=O)COc2ccccc2C#N)c(=O)[nH]c1=O	-3%	-5%
COc1cc2c(cc1OC)C(C(=O)O)C(c1cc(Br)c(O)c(OC)c1)N(C)C2=O (stereo not drawn)	-13%	-22%
CC(=O)N1CCC(C(=O)N2c3ccccc3N=C(c3ccc(C(F)(F)F)cc3)C2C(=O)NC2CCCC2)CC1 (stereo not drawn)	2%	?
Cc1cccc(C)c1-n1nnnc1SCc1nc(N)nc(N(C)C)n1	-10%	7%
CC(C)(C)n1nnnc1CN1C2CCC1CC(NC(=O)Nc1ccccc1)C2 (stereo not drawn)	-11%	-20%
C#CCOCCOCCOCCNc1nc(N2CCN(C(=O)CCCCCCCCCCNC(=O)Cn3cc(CCCCCN)nn3)CC2)nc(N2CCN(C(=O)CCCCCCCCCCNC(=O)[C@@H](CCSC)n3cc(CCO)nn3)CC2)n1	?	i
COc1ccc(OC)c(NS(=O)(=O)c2ccc(SC)cc2)c1	?	nt
O=C(CN1CCN(c2ccccc2F)CC1)NC(=O)NC1CCCCC1	-6%	-14%
Cc1ccc(-c2csc(NC(=O)C[n+]3cc(-c4ccc(C)cc4)n4c3CCC4)n2)cc1	?	?
O=C(O)c1cc(-c2ccccc2)n(-c2ccccc2C(=O)O)n1	-7%	-10%
CCOC(=O)c1cc(OC(=O)c2cc(OC)c(OC)c(OC)c2)n(-c2ccccc2)n1	-3%	-3%
O=C(/C=C/c1cn(-c2ccccc2)nc1-c1cccnc1)c1ccco1	?	-29%
CCOc1ccc(C(=O)NC(=S)Nc2ccc(NC(=O)C(C)C)cc2)cc1[N+](=O)[O-]	-9%	-3%
CC1=C(C(=O)Nc2cc(Cl)ccc2C)C(c2sccc2C)n2ncnc2N1 (stereo not drawn)	6%	0%
CSc1ccc(S(=O)(=O)NCC(=O)OCC(=O)N(C)CC(=O)Nc2ccccc2Cl)cc1[N+](=O)[O-]	-14%	i
O=C(NC(Cc1ccccc1)C(=O)NCCc1ccccn1)c1ccccc1 (stereo not drawn)	3%	-5%
O=C(Nc1ccc(S(=O)(=O)N2CCOCC2)cc1)c1cccc([N+](=O)[O-])c1	-10%	i
O=C(COc1ccc(Cl)cc1)N(Cc1ccc(F)cc1)C1CCS(=O)(=O)C1 (stereo not drawn)	-3%[7.34 µM]	-4%[7.34 µM]
COc1ccc(NC2CCCN(C(=O)CCC(=O)c3ccc(F)cc3)C2)cc1 (stereo not drawn)	-20%	0%
Cc1c(NS(=O)(=O)c2ccc(S(=O)(=O)c3ccccc3)s2)c(=O)n(-c2ccccc2)n1C	0%	i
CCN1C[C@@H]2[C@@H]3C(=O)N(C)C(=O)[C@@H]3[C@](CC)(C1=O)N2C(=O)c1ccc(Cl)cc1	-10%	i
Cc1ccc(S(=O)(=O)N/N=C\c2ccc(Cl)c([N+](=O)[O-])c2)cc1	-12%	-8%
Cc1ccc(S(=O)(=O)CC(=O)N2CCN(c3nc4c(F)cccc4s3)CC2)cc1	-19%	-5%
CCOC(=O)c1[nH]c(=O)[nH]c1CSc1nc(C)cc(C)n1	-5%	nt
N#Cc1ccc(NC(=O)COC(=O)CCc2ccc(S(=O)(=O)N3CCCCC3)cc2)cc1	-14%	-6%
Oc1ccc(O)c(Cc2nc3ccccc3[nH]2)c1	-2%	-14%
CCCCn1nnnc1C(c1ccccc1OC(F)(F)F)N1CCN(C/C=C/c2ccccc2)CC1 (stereo not drawn)	-18%	4%
O=c1oc2ccccc2c(Nc2ccc(O)cc2)c1[N+](=O)[O-]	?	nt
CCOc1cc(/C=N/NC(=O)c2cccnc2)ccc1OC(=O)c1ccco1	-10%	-8%
CCN(CC(=O)N1CCCC1)S(=O)(=O)c1ccc(Br)cc1	-18%	-27%
CCc1ccccc1N(C)S(=O)(=O)c1ccc2[nH]cc(C(=O)NCCOC)c(=O)c2c1	-7%	i
CN1CC(=O)N(C)c2nc(Br)n(C)c2C1=O	-7%	i
CCn1cc(Br)c(C(=O)Nc2cccc(SC)c2)n1	-15%	i
CCCCc1nc(SCC(=O)Nc2cccc(Cl)c2)n[nH]1	-16%	i
O=C(Cn1c(=O)n(-c2ccc(Cl)cc2)c(=O)c2sc3ccccc3c21)NC1CCCC1	?	-24%
O=C(NC(C(=O)N/N=C/c1c2ccccc2cc2ccccc12)c1n[nH]c(=O)c2ccccc12)c1ccccc1 (stereo not drawn)	-21%	nt
COc1ccc(CN=C2NN=C(c3ccccc3)CS2)cc1	-19%	-16%
CC(C)(C)[C@H]1COC(=O)[C@@H](Cc2ccc(F)cc2)CC/C=C/C[C@@H](CC(=O)N[C@@H](CO)Cc2ccccc2)C(=O)N1	?	-7%
CC(NC(=O)CNC(=O)[C@@H]1Cc2ccccc2CN1)c1ccccc1 (stereo partly drawn)	-24%	i
Cc1cccc(C(=O)Nc2ccc(CC(=O)O)cc2)c1	-10%	-11%
COc1ccc(CCNC(=O)COC(=O)/C=C/c2cccs2)cc1	1%	?
(next part)
SMILES	VACV Venus inh	Vaccinia mCherry
COC(=O)C1CC(O)CN1C(=O)NC1CCCCC1 (stereo not drawn)	-3%	i
COCCCNC(=O)c1oc2ccc(S(=O)(=O)N(C)C3CCCCC3)cc2c1C	?	-24%
COc1ccc(-n2nnnc2C(CCc2ccccc2)N2CCC(n3c(=O)[nH]c4ccccc43)CC2)cc1 (stereo not drawn)	?	?
COc1ccc(CNC(=O)C2(CC3CC(c4ccccc4)=NO3)CCN(C(=O)C3(C)CC3)CC2)cc1 (stereo not drawn)	-17%	6%
COC(=O)C1=C(c2ccc(OC)c(OC)c2)C[C@@H]2CC[C@H]1N2C(=O)NCc1cc(C)oc1C(F)(F)F	-19%	-17%
COc1ccc(NC(=O)CN(C)C(=O)c2cc(S(=O)(=O)N3CCCCCC3)ccc2OC)cc1	-3%	i
CC(C)Oc1ccc(C(CC(=O)NCc2ccco2)c2ccccc2)cc1 (stereo not drawn)	-23%	-17%
CC(C)Cn1nc(-c2ccccc2)c2ccccc2c1=O	-11%	i
COc1ccc(NC(=O)c2cc(C(C)=O)n3ccccc23)cc1	-3%	5%
COc1ccc(-c2nc3ncccc3o2)cc1NC(=O)c1ccco1	2%	-8%
C[C@@H](NC(=O)[C@@H]1CCCN1C(=O)[C@@H]1CCCN1C(=O)c1cccs1)c1ccccc1	-9%	40%[activator]
O=C1CC(c2ccco2)CC(O)=C1C=Nc1cc(Cl)ccc1Cl (stereo not drawn)	-2%	i
O=C(CSc1nc(=O)n(Cc2ccccn2)c2c1CCC2)Nc1ccccc1	-11%[7.34 µM]	-16%[7.34 µM]
CC(C)Cn1c(-c2ccc(S(=O)(=O)N3CCCC3)cc2)csc1=Nc1ccccc1	-1%	-13%
COc1ccc2[nH]cc(CCNC(=O)c3ccc([N+](=O)[O-])cc3)c2c1	-16%	-3%
CCOC(=O)c1c(NC(=O)C2CCCO2)sc(C)c1C (stereo not drawn)	3%	-2%
CCOc1ccc(S(=O)(=O)NCCC(=O)NCc2ccccn2)cc1	-11%	-10%
CCCc1cc(Nc2ccc(C)cc2)n2ncnc2n1	-26%	-28%
